KCNQ2 enhance = potentiators of rat KCNQ2 potassium channel; CHO-K1 KCNQ2, FluxOR thallium flux fluorescence; stronger effect = higher value; B-score at 10 µM; hit rate 0.54% among 310,000; AID 2239;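 active = fluorescence ratio B-score at least 3 SD of library B-scores, with initial fluorescence B-score within 3 SD, cut at about 5.3 in these data; same plate scores as AID 2156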;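 note: B-score of peak minus minimum over baseline fluorescence ratio after K+ and Tl+ stimulus; positive B-score means potentiation of KCNQ2 with more thallium influx and brighter signal; only the inactives scoring about 0 or higher are listed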
KCNQ2 enhance baseline = recorded beside KCNQ2 enhance, whose call it bears; B-score; compound at 10 µM; measured here: initial fluorescence intensity artifact check;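 brightness before thallium and not channel activity; 0 = typical well and far values either way flag optical interference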
Starred values were filed as active, the others as inactive. An excerpt (hit frequency here may not be typical).

1) COc1ccc(NC(=O)CCNC(C)=O)cc1NS(=O)(=O)c1ccc(F)cc1
2) CC(NC(=O)c1ccco1)C1COc2ccccc2O1 (configuration not stated)
3) Cn1c(=O)c2c(nc(CN3CCN(C(=O)c4ccco4)CC3)n2CC(=O)C(C)(C)C)n(C)c1=O
4) Cn1cnc([N+](=O)[O-])c1SCCO
5) Cc1cc(NC(=O)c2ccc(Cl)c(S(=O)(=O)N3CCOCC3)c2)no1
6) COc1ccc(/C=C/C(=O)NC(CCSC)C(=O)O)cc1 (configuration not stated)

Compound,1,2,3,4,5,6
KCNQ2 enhance,0.08,0.05,0.8,0.03,0.13,0.02
KCNQ2 enhance baseline,1.4,0.22,0.97,0.31,-0.9,-1.96

7) Cc1ccccc1NC(=O)CCN1CCCC1
8) Cc1ccccc1C(=O)NC(=S)NC1CCS(=O)(=O)C1 (configuration not stated)
9) CCCc1nnc(NC(=O)CCC(=O)NC2CCCC2)s1
10) Cc1c(CCOC(=O)c2ccc([N+](=O)[O-])cc2)sc[n+]1CC(=O)c1ccccc1
11) Cc1cccc(Nc2cc(=O)n(C)c(=O)[nH]2)c1
12) COc1ccc(C(CC(=O)N2CCCC2)c2c(O)cc(OC)cc2OC)cc1 (configuration not stated)

Compound,7,8,9,10,11,12
KCNQ2 enhance,1.37,0.56,0.06,0.06,1.91,0.42
KCNQ2 enhance baseline,-0.21,0.42,1.38,0.02,-0.28,-0.93

13) N#Cc1ccc(COn2nnc3ccccc32)cc1
14) Cc1ccc(Nc2nc3c([nH]2)c(=O)n(C)c(=O)n3C)cc1
15) O=C(O)c1cccc(NC(=O)c2cn(-c3ccccc3)nc2-c2ccc(F)cc2)c1
16) Cc1nnc(NC(=O)C2CCCN(c3ncccn3)C2)s1 (configuration not stated)
17) O=C(NCc1ccc2c(c1)OCO2)NC1CCCCC1
18) COC(=O)CCCCC1SCC(NC(=O)c2ccccc2)C1=O (configuration not stated)

Compound,13,14,15,16,17,18
KCNQ2 enhance,0.58,1.53,0.01,0.66,5.67*,1.4
KCNQ2 enhance baseline,0.41,0.21,-0.51,-0.62,0.04*,0.13

19) c1coc(CNC2C3CC4CC(C3)CC2C4)c1 (configuration not stated)
20) CC(C)[C@H](NS(=O)(=O)c1ccccc1)C(=O)OCC(=O)NC(=O)c1cccn1C
21) COc1ccc2[nH]cc(C(=O)CN3CCCC(C)C3)c2c1 (configuration not stated)
22) CC(=O)Nc1sc(C)c(C)c1C(=O)OCC(=O)N(CC(C)C)c1c(N)n(Cc2ccccc2)c(=O)[nH]c1=O
23) CC(=O)NCCC(=O)Nc1sc2c(c1-c1nc3ccccc3[nH]1)CCCC2
24) Cn1cccc1C(=O)NC(=O)COC(=O)C12CC3CC(CC(O)(C3)C1)C2

Compound,19,20,21,22,23,24
KCNQ2 enhance,1.76,0.3,0.37,0.01,0.33,0.4
KCNQ2 enhance baseline,-0.47,-3.28,0.26,-1.73,-0.86,-0.03

25) Cc1coc2cc3oc(=O)ccc3cc12
26) CCN(CC(=O)NCc1cccs1)C(=O)c1ccccc1F
27) O=C(OC(C(=O)c1c[nH]c2ccccc12)c1ccccc1)c1cnccn1 (configuration not stated)
28) CCC1CCCCN1C(=S)NC(=O)c1ccc([N+](=O)[O-])cc1 (configuration not stated)
29) CCCOc1ccc(-c2nnn(CC(=O)N3CCC(C)CC3)n2)cc1
30) CCOC(=O)c1c(-c2ccco2)csc1NC(=O)CSc1nnc(N)s1

Compound,25,26,27,28,29,30
KCNQ2 enhance,1.02,0.68,1.45,7.84*,1.25,1.25
KCNQ2 enhance baseline,-0.43,0.46,-1.31,2.47*,0.02,-0.74

31) CC(=O)c1ccc(N2CCN(C(=O)Cn3cnc(S(=O)(=O)N4CCCCC4)c3)CC2)cc1
32) CNC(=O)c1ccc(OC2CSC2)cc1
33) O=C(O)c1cccc(S(=O)(=O)Nc2cccc3ccccc23)c1
34) CCC(C)NC(=O)CNC(=S)N(CCCN1CCOCC1)Cc1cccs1 (configuration not stated)
35) CCn1ncc(/C=C/C(=O)NCc2cnn(C)c2C)c1C
36) Cc1c(Cl)cccc1NC(=O)CCCN1C(=O)CCC1=O

Compound,31,32,33,34,35,36
KCNQ2 enhance,1,0.92,0.02,0.14,0.52,0.11
KCNQ2 enhance baseline,-0.5,0.07,-0.36,-0.91,0.61,-0.73

An excerpt from above in order of SMILES length, lowest first:
32) CNC(=O)c1ccc(OC2CSC2)cc1
36) Cc1c(Cl)cccc1NC(=O)CCCN1C(=O)CCC1=O
29) CCCOc1ccc(-c2nnn(CC(=O)N3CCC(C)CC3)n2)cc1
30) CCOC(=O)c1c(-c2ccco2)csc1NC(=O)CSc1nnc(N)s1
31) CC(=O)c1ccc(N2CCN(C(=O)Cn3cnc(S(=O)(=O)N4CCCCC4)c3)CC2)cc1

Compound,32,36,29,30,31
KCNQ2 enhance,0.92,0.11,1.25,1.25,1
KCNQ2 enhance baseline,0.07,-0.73,0.02,-0.74,-0.5

(more compounds)
37) CC(=O)Nc1ccc(S(=O)(=O)N2CCN(C(=O)c3ncoc3-c3cccc(C)c3)CC2)cc1
38) COc1ccc(/C=N\NC(=O)c2ccccc2OC)cc1COc1ccccc1C
39) Cc1cc(C)c(-c2cc(C(=O)Nc3c(C)n(C)n(-c4ccccc4)c3=O)[nH]n2)c(O)c1
40) NC(=O)C1CCN(CC(=O)Nc2ccccc2N2CCOCC2)CC1
41) COc1ccc(C(C(=O)NC2CCCC2)N(CCO)C(=O)Cn2nnc(-c3ccc(C)o3)n2)cc1 (configuration not stated)
42) CC#CC(=O)N1CCC(n2nccc2NC(=O)c2ccc3c(c2)OCO3)CC1

Compound,37,38,39,40,41,42
KCNQ2 enhance,1.08,0.58,0.5,0.02,0.38,2.89
KCNQ2 enhance baseline,-0.46,1.79,0.92,-1,0.08,0.92

43) CC(=O)Nc1ccc(C(=O)OCc2ccc(F)cc2)cc1
44) CC(C)(C)c1ccc(/C=C2\CCn3c2nc2cc(C(=O)O)ccc2c3=O)cc1
45) CCOc1[nH]n(-c2ccccc2)c(=O)c1C=Nc1ccc(F)cc1F
46) COc1ccccc1N1CCN(S(=O)(=O)CCNC(=O)CCCc2ccccc2)CC1
47) CCN(CCn1cccn1)C(=O)CC1C(=O)NCCN1Cc1cc(OC)cc(OC)c1 (configuration not stated)
48) Cc1cccc(C)c1NC(=O)CN(C1CCCCC1)S(C)(=O)=O

Compound,43,44,45,46,47,48
KCNQ2 enhance,3.24,1.3,1.44,1.25,1.19,0.21
KCNQ2 enhance baseline,0.54,-1.34,-1.94,-0.88,0.49,1.27

49) CCOc1cc(N2CCOCC2)c(OCC)cc1NC(=O)C1CCCC1
50) CCOc1cc(C)c(C(C)C)cc1S(=O)(=O)n1cnc(C)c1
51) COc1ccc(CCNC(=O)COc2nsnc2N2CCOCC2)cc1OC
52) CCOc1ccc(CN2CCN(Cc3nc(C(C)C)cs3)CC2CCO)cc1 (configuration not stated)
53) O=C(O)c1ccccc1S(=O)(=O)Cc1ccccc1
54) Cc1cc(=O)[nH]c(NCc2ccc(Cl)cc2)n1

Compound,49,50,51,52,53,54
KCNQ2 enhance,4.23,8.66*,1.53,1.74,0.39,0.13
KCNQ2 enhance baseline,1.46,0.09*,0.31,0.65,0.36,-0.07

Full records, quoted from the list. Order of values: KCNQ2 enhance	KCNQ2 enhance baseline
Record of CCOc1ccc(CN2CCN(Cc3nc(C(C)C)cs3)CC2CCO)cc1 (configuration not stated) = 1.74	0.65
Record of O=C(O)c1ccccc1S(=O)(=O)Cc1ccccc1 = 0.39	0.36
Record of CCOc1cc(N2CCOCC2)c(OCC)cc1NC(=O)C1CCCC1 = 4.23	1.46

Continued.
55) CC(C)CCNC(=O)c1ccc2c(c1)N(C)C(=O)c1ccccc1S2
56) CS(=O)(=O)NCCCNc1c(Cl)cccc1[N+](=O)[O-]
57) O=C(c1nn(-c2ccccc2)c(=O)c2ccccc12)N1CCN(c2ccccn2)CC1
58) COc1ccc(F)cc1C(=O)C1CCCN(Cc2cnc(N3CCCC3)s2)C1 (configuration not stated)
59) O=C(CSc1nc(=O)n(CCCN2CCOCC2)c2c1CCCC2)Nc1cccc(F)c1
60) O=C(O)C(Cc1c[nH]c2ccccc12)NS(=O)(=O)c1ccccc1 (configuration not stated)

Compound,55,56,57,58,59,60
KCNQ2 enhance,0.46,1.64,0.92,1.19,0.18,2.13
KCNQ2 enhance baseline,0.41,-0.58,-0.27,-0.01,-0.74,-0.59

61) COc1cc(C(=O)OCC(=O)N2CCCC2)cc(OC)c1OC
62) O=C(CSc1nnc(SCc2ccc(Cl)cc2)s1)N/N=C/c1ccccc1Cl
63) CCOc1cc(C2C(C(C)=O)=C(O)C(=O)N2CCc2c[nH]c3ccccc23)ccc1O (configuration not stated)
64) COC(=O)c1c(-c2c(Cl)cccc2Cl)noc1NC(=O)N(C)C
65) CC1([N+](=O)[O-])COC2(OC1)C(=O)Nc1ccccc12 (configuration not stated)
66) COc1ccc2[nH]c(=O)c(CN(Cc3ccco3)C(c3nnnn3Cc3ccccc3)C(C)C)cc2c1 (configuration not stated)

Compound,61,62,63,64,65,66
KCNQ2 enhance,0.06,0.97,0.52,0.49,0.5,1.59
KCNQ2 enhance baseline,1.88,0.55,0.28,-0.06,-0.4,-0.82
